Screens as filed in PubChem.
HTT promoter inh: inhibitors of huntingtin promoter activity; HEK293 HTT promoter firefly luciferase reporter (activity 0% = vehicle and -100% = no light), 24 h; Potency, µM (highest dose often 57.5 µM), for inactives: top-dose activity change, negative = inhibition, usual class: inhibitors; actives 0.93% (n = 48,000); active = well fitted inhibition curve with a large enough effect; inconclusive = small, poorly fitted or top-dose-only effect; inactive = no such curve, though single readings can be large or run the other way; also: nearly all actives have a fitted effect of over 50% in size
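HEK293 luciferase promoter-reporter cells (2,500/well) plated 24 h, then compounds added at up to 57.5 uM final for 24 h at 37 °C. Firefly luminescence by Dual-Glo, normalized to vehicle (0%) and zero RLU (-100%).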
PMP22 txn prim: modulates PMP22 transcription in S16 Schwann cells; S16 Pmp22-F2sN Schwann cells (luciferase reporters placed in the Pmp22 gene), FLuc/NLuc coincidence luminescence, 24 h; Potency, µM (highest dose often 57.5 µM), inactives show top-dose activity change, negative = inhibition, most hits filed as inhibitors; actives 2% (n = 43,000); AID 1508649; active = clear falling dose curves in both reporters; inconclusive = both reporters move, but less clearly or upward; inactive = either reporter flat; the % is the NLuc reporter signal; also: % is scaled to controls: 0 for no effect and ±100 for the full control effect; some results filed as inactive show a strong effect at the top dose
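S16 Schwann cells carrying FLuc/NLuc coincidence reporter in the Pmp22 3' UTR treated with compound 24 h at 37C; FLuc then NLuc luminescence read sequentially by dual-luciferase reagents.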
* = called active by the depositor; ? = inconclusive; nt = not tested or not shown; & = joins results of further samples; [ ] = remark or other dose. Potency is read from the fitted curve at half-maximal effect. The list is partial. The share of hits here may be higher or lower than overall.

SMILES	HTT promoter inh	PMP22 txn prim
CCN(CC)CCNC(=O)c1nn(-c2ccc(OC)c(Cl)c2)c(=O)c2c1c1ccccc1n2C	8%	-4%
COc1ccc(CCNc2oc(/C=C/c3ccc(OC)c(OC)c3)nc2C#N)cc1	-23%	?
Cc1ccccc1Cn1nnc2c(=O)[nH]c(C3CCN(C(=O)c4ccccc4Cl)CC3)nc21	-15%	-2%
CC(=O)c1ccc(N2CCN(S(=O)(=O)c3cc4[nH]c(=O)c(=O)[nH]c4cc3C)CC2)cc1	8%	-15%
CCn1cc(C(=O)NCCc2ccccc2)c(=O)c2cc(S(=O)(=O)N(C)C3CCCCC3)ccc21	-6%	-7%
CCC1CCCCN1S(=O)(=O)c1cc(C(=O)Nc2ccc(C)c(F)c2)ccc1F (configuration not stated)	?	?
COc1ccc(NC(=O)Nc2nnc(N3CCCC3)s2)cc1	4%	7%
COCc1cc(C)n(CC(=O)Nc2cccc(C(C)=O)c2)c(=O)c1C#N	0%	-14%
Cc1cc(C)cc(N2CCn3c2nc2c3c(=O)n(C/C=C/c3ccccc3)c(=O)n2C)c1	0%	-23%
COc1ccc(NC(=O)c2c(NC(=O)c3ccc(Br)cc3)sc3c2CCCC3)cc1	?	?

Taken from the entries so far, 2 compounds:
SMILES	HTT promoter inh	PMP22 txn prim
Cc1cc(C)cc(N2CCn3c2nc2c3c(=O)n(C/C=C/c3ccccc3)c(=O)n2C)c1	0%	-23%
COc1ccc(NC(=O)c2c(NC(=O)c3ccc(Br)cc3)sc3c2CCCC3)cc1	?	?

Next section.
SMILES	HTT promoter inh	PMP22 txn prim
Cc1ccc(C(=O)Nc2ccc(C(=O)O)cc2)cc1S(=O)(=O)Nc1ccccc1	19%	-9%
CCOc1ccc(NC(=O)c2cc(S(=O)(=O)N3CCC(C)CC3)cn2C)cc1	-4%	-24%
CCOc1ccc(C2CC(=O)n3nc(-c4ccc(C)cc4)nc3S2)cc1 (configuration not stated)	0%	-2%
CCOc1cc(C2C(C(N)=O)=C(C)Nc3ncnn32)cc(Br)c1O (configuration not stated)	-8%	-11%
Cc1ccc(Cl)cc1NC(=O)CN1C(=O)c2ccccc2Sc2ncccc21	-16%	-26%
CNS(=O)(=O)c1cn(CC(=O)N2CCN(c3ccccc3OC)CC2)cc1S(=O)(=O)NC	5%	-4%
COc1ccccc1N1CCN(C(=O)C2CCN(S(=O)(=O)c3c(C)noc3/C=C/c3ccc(C)cc3)CC2)CC1	-13%	9%
Cc1ccc(Cn2c(CNS(=O)(=O)c3cccc([N+](=O)[O-])c3)nc3cccnc32)cc1	-10%	-24%
COC(=O)CC(=O)CSc1nc2cc(C(=O)NC(C)C)ccc2c(=O)n1CCc1ccccc1	-20%	-11%
CCc1nn(CCCC(=O)N2CCN(c3cccc(OC)c3)CC2)c(=O)c2cc3occc3n12	-12%	-5%
C[C@H](O)C(=O)Nc1c(I)c(C(=O)NC(CO)CO)c(I)c(C(=O)NC(CO)CO)c1I	13%	nt
CCOC(=O)c1cccc(NC(=O)c2cc3cc4cc(OC)ccc4nc3s2)c1	8%	?
O=C(Cn1ncc2c3ccccc3n(Cc3ccc(Cl)cc3)c2c1=O)N1CCCCCC1	?	-23%
CNC(=O)c1c(I)c(NC(C)=O)c(I)c(C(=O)O)c1I	0%	nt
Cc1ccc(/C=C/c2onc(C)c2S(=O)(=O)N2CCC(C(=O)N(CCC(C)C)Cc3ccco3)CC2)cc1	-9%	-7%
Cc1ccc2cc3c(N)nn(C(=O)c4cccc(F)c4)c3nc2c1	17%	-11%
COc1ccccc1OCCn1c(NC(=O)c2ccccc2)nc2ccccc21	7%	-104%
Fc1ccc(-c2noc3ncnc(NCC4CCN(Cc5ccc(Cl)cc5)CC4)c23)cc1	-28%	?
COc1ccc(CNC(=O)CCc2c(C)nc3c(c2C)c(=O)n(C)c(=O)n3C)cc1	-1%	-6%
CC(=O)N1CCc2c(sc3c2c(=O)n(-c2ccc(C)cc2)c(=O)n3Cc2c(F)cccc2Cl)C1	-19%	-24%

Rewritten comma-delimited: 3 of the compounds above.
SMILES,HTT promoter inh,PMP22 txn prim
Cc1ccc(/C=C/c2onc(C)c2S(=O)(=O)N2CCC(C(=O)N(CCC(C)C)Cc3ccco3)CC2)cc1,-9%,-7%
O=C(Cn1ncc2c3ccccc3n(Cc3ccc(Cl)cc3)c2c1=O)N1CCCCCC1,?,-23%
C[C@H](O)C(=O)Nc1c(I)c(C(=O)NC(CO)CO)c(I)c(C(=O)NC(CO)CO)c1I,13%,nt

Other entries follow.
SMILES	HTT promoter inh	PMP22 txn prim
Cc1ccc(-n2cc(-c3ccccc3)c3c(N4CCC(C)CC4)ncnc32)cc1Cl	-13%	-28%
CCc1ccccc1NC(=O)C1CCN(c2nn3c(=O)cc(C)nc3s2)CC1	-16%	-42%
CC1CCCN(CCCNC(=O)c2cn(C)c3ccc(S(=O)(=O)N(C)C4CCCCC4)cc3c2=O)C1 (configuration not stated)	-20%[11.5 µM]	-10%
CN1CCN(CCCNC(=O)Cn2c(-c3cccs3)cc3ccccc32)CC1	-18%	?
Cc1ccc(C)c(CN2C(=O)C3(c4ccccc42)N(c2cccc(C(F)(F)F)c2)C(=O)CS3(=O)=O)c1 (configuration not stated)	-28%	-34%
COc1ccc(NC(=O)CSc2c3c(nc4ccc(Cl)cc24)CCCC3)cc1Cl	-32%	19µM*
O=c1cc(-c2ccccc2)n2c(SCc3cccc([N+](=O)[O-])c3)nnc2[nH]1	-7%	-9%
NC12CC3CC(CC(C3)C1)C2	4%&-20%	nt
CC(=C(CCOC(=O)C(C)C)SSC(CCOC(=O)C(C)C)=C(C)N(C=O)Cc1cnc(C)nc1N)N(C=O)Cc1cnc(C)nc1N	8%	nt
CC(Oc1ccccc1)C(=O)Nc1ccccc1C(=O)OCc1cc(=O)n2nc(C3CC3)sc2n1 (configuration not stated)	?	6.5µM*
O=S(=O)(NCCS(=O)(=O)N1CCN(c2ccccc2)CC1)c1ccccc1	-29%	0%
Cc1ccc(C(=O)Nc2ccc(S(=O)(=O)N(Cc3ccccc3)c3ccccc3)cc2)cc1	?	-1%
COc1ccc(CNC(=O)c2ccc3nc(CCc4ccccc4)oc3c2)cc1	1%	-2%
Cc1cccc(NC(=O)CSc2ncc3c(n2)-c2cc(Cl)ccc2N(C)S3(=O)=O)c1C	-18%	?
Cc1ccc(C)c(N2CCN(C(c3ccc(F)cc3)c3nnc(-c4ccccc4)o3)CC2)c1 (configuration not stated)	?	10%
Cc1ccc(CSc2nc3cc(C(=O)NC4CCCC4)ccc3c(=O)n2Cc2ccccc2)cc1	3%	-14%
OC[C@H]1O[C@@H](O[C@@H]2[C@@H](CO)O[C@](O)(CO)[C@H]2O)[C@H](O)[C@@H](O)[C@H]1O	8%	nt
COc1ccc2c(c1)sc1ncc(C(=O)NCc3ccccc3F)c(=O)n12	7%	-15%
CC(=O)N1CCCc2cc(S(=O)(=O)N(C)CC(=O)Nc3ccc(C)cc3C)ccc21	-6%	-12%
CCOC(=O)N1CCc2c(sc3c2c(=O)n(Cc2ccccc2)c(=O)n3CC(=O)Nc2cccc(CC)c2)C1	-12%	-16%
CCN(CC)C(=O)C1CCCN(c2ncnc3c2nc2n3CCCCC2)C1 (configuration not stated)	-13%	?
Cc1nc2c(C(=O)NCCc3ccc(Cl)cc3)cnn2c(C)c1Cc1ccc(F)cc1	-29%	-34%
Cc1ccc(NC(=O)Cn2c(=O)oc3cc(S(=O)(=O)N4CCCC4)ccc32)cc1F	?	-37%
Cc1ccc(-n2c(SCC(=O)NCc3ccccc3)nc3n[nH]c(C)c3c2=N)cc1Cl	?	?
CCN(C(=O)CCc1nc(-c2ccc(C)cc2)no1)c1cccc(C(F)(F)F)c1	?	16%
O=C(Nc1cc(Cl)ccc1Cl)c1cc(S(=O)(=O)N2CCCc3ccccc32)ccc1F	?	-16%
CCCCN(CC)C(=O)c1cc2c(=O)n3ccccc3nc2n1C	30%[activator]	-23%
Cc1ccc(CN2c3ccccc3-c3nc(SCC(=O)NCCc4ccccc4)ncc3S2(=O)=O)cc1	-18%	3%
COc1ccccc1CNC(=O)C(Cc1ccccc1)NS(=O)(=O)c1ccc2c(c1)oc(=O)n2C (configuration not stated)	-24%	-5%
Cc1c(C(=O)N(C)C)sc2c1c(=O)n(-c1ccccc1C(F)(F)F)c(=O)n2Cc1ccccc1C#N	0%	-18%
O=C(C1CCN(S(=O)(=O)c2ccc(Br)s2)CC1)N1CCN(c2cccc(Cl)c2)CC1	-25%	?
CC(=O)c1ccc(N2CCN(c3ncnc4onc(C)c34)CC2)cc1	4.5µM*	?
CCOC(=O)c1cc2c(=O)n3ccccc3nc2n(CCOC)c1=NC(=O)c1cc2ccccc2o1	-4%	-5%
COC(=O)c1cc2sc(C)cc2n1Cc1cccc(OC)c1	-30%	?
O=C(NC1CCCC1)c1ccc(CSc2nc3cccnc3n2Cc2cccc(F)c2)cc1	?	?
Cc1ccccc1NC(=O)c1sc2nc3c(cc2c1N)CCCC3	18%	?
Cc1nc2c(C(=O)O)cnn2c(C)c1Cc1ccccc1	4%	-10%
COc1cc(OC)c(NC(=O)Cn2cnc3sc(C)c(S(=O)(=O)N4CCC(C)CC4)c3c2=O)cc1Cl	-11%	-20%
COc1ccc(NC(=O)Cn2nnc(C(=O)Nc3ccc(F)c(Cl)c3)c2N)cc1OC	-7%	-6%
COc1ccc(Cl)cc1NC(=O)CCN1C(=O)c2ccccc2Sc2ncccc21	-15%	-16%
CCN(c1ccccc1)S(=O)(=O)c1cc(C(=O)Nc2ccc(Br)cc2)ccc1F	?	?
Cc1ccc(CN2CCN(C3CCNCC3)C(=O)C2=O)cc1	-10%	18%
Cc1oc(-c2cccc(Cl)c2)nc1CN1CCC(C(=O)NC(C)c2ccccc2)CC1 (configuration not stated)	-5%	?
CC(C)CC(=O)Nc1ccccc1OCc1cc(=O)n2ccccc2n1	-3%	-6%
COC(=O)c1cc(NC(=O)CCc2c(C)nc3c(c(C)nn3C(C)(C)C)c2C)cc(C(=O)OC)c1	14%	-11%
O=C(Nc1ccccc1C(F)(F)F)c1cc2nc(-c3ccccc3)cc(-c3ccccc3)n2n1	-4%	1%
Cc1ccc(Cl)cc1NC(=O)CCCn1c(=O)c2cccn2c2cccnc21	0%	-11%
COc1ccc(NC(=O)CSc2nc3ccccc3c(=O)n2CCC(=O)NC2CCCCC2)c(OC)c1	0%	-13%
COc1ccccc1CNC(=O)c1ccc2c(c1)N(Cc1cc(C)ccc1C)C(=O)c1ccccc1S2	-19%	-2%
CC(C)(C)c1ccc2c(c1)N(CC(=O)NCCCN1CCN(c3ccccc3F)CC1)C(=O)CO2	-29%	?
(continued)
SMILES	HTT promoter inh	PMP22 txn prim
COc1ccc(-c2nc3sc(CCNC(=O)c4ccc(C(C)(C)C)cc4)c(C)n3n2)cc1	53%[activator]	-6%
O=C(c1ccc(Cl)cc1)N(Cc1ccco1)Cc1ccco1	-22%	5%
Cc1nc2nc(CNC(=O)c3cccc(F)c3)nn2c(C)c1CCC(=O)Nc1ccc(F)cc1	11%	-2%
COc1ccc(NC(=O)C(NS(=O)(=O)c2cccc3nsnc23)C(C)C)cc1 (configuration not stated)	-11%[11.5 µM]	6%
O=C(NCc1ccc(Cl)cc1)NC1COc2ccccc2C1 (configuration not stated)	-1%	-9%
Cc1cccc(CNC(=O)c2oc3c(c2C)-c2nn(Cc4ccccc4Cl)cc2CC3)c1	-29%	?
COc1ccc(C(=O)c2cn(Cc3ccccc3F)c3cc4c(cc3c2=O)OCO4)cc1	?	?
Cc1nnc(NC(=O)CSc2nnc3c(n2)[nH]c2ccccc23)s1	-7%	-6%
Cc1ccc(-c2onc(C)c2C)cc1S(=O)(=O)Nc1ccc(Cl)cn1	1%	-57%
Cc1nn(C(=O)c2cccc(Cl)c2)c(C)c1S(=O)(=O)N1CCOCC1	-19%	-20%
COc1cc(OC)c(NC(=O)CCc2c(C)nc3cc(-c4ccccc4OC)nn3c2C)cc1Cl	-32%	?
Cc1ccc(-n2c(=O)c3c(C)c(C(=O)N(C)C)sc3n(CC(=O)N(C)c3ccccc3)c2=O)cc1C	-4%	-12%
COc1cc(NC(=O)CN2c3ccccc3S(=O)(=O)c3ccccc32)cc(OC)c1	-2%	-3%
COc1ccc(NC(=O)CSc2oc(-c3cccs3)nc2S(=O)(=O)c2ccccc2)c(OC)c1	?	3%
COc1cccc(NS(=O)(=O)c2ccc3c(c2)CCCN3C(=O)C2CCC2)c1	?	?
CC(=O)c1cccc(NC(=O)CSc2nnc3ccc(-c4ccc(C)cc4)nn23)c1	-17%	8%
COc1ccc(C)cc1NC(=O)CSc1nc(=O)[nH]c2c1CCCC2	-29%	-12%
CCn1cc(C(=O)NCCc2ccc(Cl)cc2)c(=O)c2cc(S(=O)(=O)N(C)C3CCCCC3)ccc21	-1%	-16%
CCc1ccc(NC(=O)CCCc2nnc3n(CC(C)C)c(=O)c4sccc4n23)cc1	-26%	11%
Cc1nnc(SCc2nc(-c3ccc(Cl)cc3)no2)n1-c1ccc(F)cc1	?	?
COc1ccc(C2CC(=O)N(CC(=O)Nc3ccc(C)c(Cl)c3)c3ccccc3S2)cc1OC (configuration not stated)	-29%	-44%

Profiles, looked up by structure:
Cc1ccc(-n2c(=O)c3c(C)c(C(=O)N(C)C)sc3n(CC(=O)N(C)c3ccccc3)c2=O)cc1C is listed as HTT promoter inh: -4%; PMP22 txn prim: -12%
Cc1nnc(SCc2nc(-c3ccc(Cl)cc3)no2)n1-c1ccc(F)cc1 is listed as HTT promoter inh: ?; PMP22 txn prim: ?
